Source: PubChem BioAssay
Six1-Eya2 inh: inhibitors of human Six1/Eya2 interaction | Q15475+O00167 | AID 651725 | AlphaScreen GST-Six1/His-Eya2 binding, biochemical; stronger effect = lower value; control for the full effect not named in the record | activity change, % (test concentration not listed) | 360,000 tested, 0.56% active; in the data active = activity change below about -65%; inconclusive = about -30% to -65%; inactive = above about -30%; further: on the % scale 0 is the no-effect control and ±100 the full control effect; compound concentration not given in the record
Target sequence (O00167 whole entry, looked up): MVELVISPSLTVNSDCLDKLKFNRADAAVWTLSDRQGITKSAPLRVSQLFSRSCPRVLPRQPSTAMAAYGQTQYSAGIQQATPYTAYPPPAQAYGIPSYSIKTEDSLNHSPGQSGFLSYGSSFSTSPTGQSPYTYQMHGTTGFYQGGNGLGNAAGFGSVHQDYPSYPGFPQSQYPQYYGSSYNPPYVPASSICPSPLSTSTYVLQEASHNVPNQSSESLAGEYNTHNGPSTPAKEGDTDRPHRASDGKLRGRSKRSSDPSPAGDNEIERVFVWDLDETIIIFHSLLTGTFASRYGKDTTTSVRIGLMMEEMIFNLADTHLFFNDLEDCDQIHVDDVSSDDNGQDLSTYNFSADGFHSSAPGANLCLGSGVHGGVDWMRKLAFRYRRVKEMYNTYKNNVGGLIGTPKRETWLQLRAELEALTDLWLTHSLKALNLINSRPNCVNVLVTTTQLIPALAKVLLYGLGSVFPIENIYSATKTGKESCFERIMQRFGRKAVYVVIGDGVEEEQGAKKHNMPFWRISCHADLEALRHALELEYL
Target sequence (Q15475 whole entry, looked up): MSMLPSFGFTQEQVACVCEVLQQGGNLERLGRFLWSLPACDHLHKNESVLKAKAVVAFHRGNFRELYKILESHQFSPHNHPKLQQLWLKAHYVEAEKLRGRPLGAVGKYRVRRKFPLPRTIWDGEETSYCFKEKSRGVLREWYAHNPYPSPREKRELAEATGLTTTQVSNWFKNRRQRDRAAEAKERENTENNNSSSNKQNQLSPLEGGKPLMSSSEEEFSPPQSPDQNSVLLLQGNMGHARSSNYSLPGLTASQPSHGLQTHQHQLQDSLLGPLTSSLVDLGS
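Homogeneous AlphaScreen proximity assay pairing GST-Six1 with His-tagged Eya2 (added as 5X mix: 250 nM and 500 nM) in 50 mM Tris pH 8.0, 300 mM NaCl, 1 mM TCEP. Glutathione donor and nickel acceptor beads; 1 h, 37 °C, dark.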
TRPML1 ag: human mucolipin-1 channel agonism. Q9GZU1. TRPML1-expressing cells, Ca2+ dye fluorescence, FDSS; host cell line not named in the record; reference of the full effect not given here. activation, % (test concentration not listed). 410,000 tested, 0.12% active. AID 624414; in the data active = activation above about 50%; inconclusive = about 30% to 50%; inactive = below about 30%; further: 0% is about no effect; the text of the record puts the active cut at 80%
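Agonist activity was taken from a 110 s kinetic Ca2+ dye read on the FDSS after pinning compounds onto TRPML1-DL cells. The cells were seeded at 1,500/well with Tet inducer, incubated about 16 h, then dye-loaded at room temperature.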
PINK1 expr mod: modulators of PINK1 expression; PINK1 immunofluorescence, high-content cytometry, 24 h; Potency, µM (series often up to 76.6 µM), for inactives: at the top dose activation (PINK1 increase), usual class: activators; 410,000 tested, 0.2% active; AID 624263; active = well fitted activation curve with a large enough effect; inconclusive = small, poorly fitted or top-dose-only effect; inactive = flat fitted curve, though single readings scatter; cell line not stated here;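 further: potency means the concentration at half of the fitted maximal effect; % of control where 0% means no effect; nearly all actives have a fitted effect of over 65% in size; a mitochondrial uncoupler was the plate control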
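Measures PINK1 amount and localization on or inside mitochondria by immunofluorescence. Stable cells get compounds at 5 concentrations for 24 hours before fixation and staining; CCCP controls included.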
TRPML1 blocker: inhibitors of human TRPML1 channel. activity change, negative = inhibition, % (concentration not given with the values). TRPML1-inducible cells, Ca2+ dye fluorescence, FDSS; stronger effect = lower value; inhibition of EC80 agonist-evoked calcium signal. 390,000 tested, 0.02% active. AID 624415. Q9GZU1; in the data active means activity change below about -50%; inconclusive means about -30% to -50%; inactive means above about -30%;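 further: stimulus is agonist 54-4 at its EC80 concentration; on the % scale 0 is the no-effect control and ±100 the full control effect; compound concentration not given in the record; the text of the record puts the active cut at -80%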
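TRPML1-DL cells, Tet-induced overnight (~16 h, 37 °C) at 1,500 cells/well, were loaded with Ca8 no-wash dye plus quencher for 45-90 min at room temperature. Compounds were pinned during FDSS kinetic reading; agonist 54-4 at EC80 (4 uM final) then added.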
D2 potentiator: potentiates the human D2 dopamine receptor allosterically; P14416; DiscoveRx D2 beta-arrestin cells, luminescence, 90 min; 100% = 57 uM dopamine signal; potentiation, % (concentration not given with the values); 360,000 tested, 0.23% active; AID 624464; active = potentiation of 50% or more; inconclusive = 30% to 50%; inactive = 30% or less;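 further: compound concentration not given in the record; tested on top of an EC20 dose of dopamine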
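PathHunter D2 cells, attached overnight at 37 deg C, received compound in DMSO plus dopamine at EC20 (50 nM final) for 90 min at 37 deg C. Beta-arrestin recruitment was read as luminescence after 1 h with detection reagent at ambient temperature.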
D2 ag: agonists of human D2 dopamine receptor (beta-arrestin); P14416; DiscoveRx PathHunter D2 beta-arrestin, luminescence, 90 min; 100% = 57 uM dopamine signal; activation, % (no concentration beside the values); 360,000 tested, 0.084% active; AID 624465; in the data active = activation above about 40%; inconclusive = about 15% to 40%; inactive = below about 15%; further: compound concentration not given in the record; the text of the record calls up to 30% inactive
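DiscoveRx PathHunter D2 beta-arrestin cells (2,100/well) attached overnight, then compound-stimulated 90 min at 37 C in HBSS/10 mM HEPES/0.1% Tween-20 buffer; beta-galactosidase complementation read by luminescence after 1 h at ambient temperature. Dopamine 57 uM final (EC100) as control.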
Numbers without * were called inactive; u = inconclusive; x = no result given; [ ] = remark or other dose.

Sample of the layout, three compounds:
Values run as follows: Six1-Eya2 inh | TRPML1 ag | PINK1 expr mod | TRPML1 blocker | D2 potentiator | D2 ag
COc1ccccc1C(=O)COC(=O)c1cc([N+](=O)[O-])ccc1N1CCOCC1
  -3 | 0.4 | -0.1% | 29 | 12 | -1.4
Cc1cccc(Cn2c(SCc3ccc(C(=O)NC4CCCCC4)cc3)nc3ccncc32)c1
  x | 1.6 | 2.6% | u | x | x
Cc1ccc(Nc2nnc(SCC3CCCCO3)s2)cc1 (stereo unspecified)
  -23 | 2.4 | 14% | -12 | 0 | -4.3

Main list, from the first entry:
Values run as follows: Six1-Eya2 inh | TRPML1 ag | PINK1 expr mod | TRPML1 blocker | D2 potentiator | D2 ag
COc1ccccc1C(=O)COC(=O)c1cc([N+](=O)[O-])ccc1N1CCOCC1
  -3 | 0.4 | -0.1% | 29 | 12 | -1.4
Cc1cccc(Cn2c(SCc3ccc(C(=O)NC4CCCCC4)cc3)nc3ccncc32)c1
  x | 1.6 | 2.6% | u | x | x
Cc1ccc(Nc2nnc(SCC3CCCCO3)s2)cc1 (stereo unspecified)
  -23 | 2.4 | 14% | -12 | 0 | -4.3
CC(=O)c1ccc(-n2c(=O)[nH]c(=O)c3c(N)c(C(=O)c4ccc(Cl)cc4)sc32)cc1
  -1 | 0.7 | 9.2% | 15 | 0 | 5.9
O=C1c2ccccc2CCCC12N=NCC2c1cccc2ccccc12 (stereo unspecified)
  -3 | 2.3 | 3.7% | 18 | 119* | u
CCC(C)C(N)C1=NC(C(=O)N[C@@H](CC(C)C)C(=O)N[C@H](CCC(=O)[O-])C(=O)N[C@H](C(=O)N[C@H]2CCCCNC(=O)[C@H](CC(N)=O)NC(=O)[C@@H](CC(=O)[O-])NC(=O)[C@H](Cc3cnc[nH]3)NC(=O)[C@@H](Cc3ccccc3)NC(=O)[C@H]([C@@H](C)CC)NC(=O)[C@@H](CCCN)NC2=O)[C@@H](C)CC)CS1.[Zn+2] (stereo partly specified)
  -3 | -0.7 | 0.4% | -14 | -8 | -4.5
O=C(CSc1nc(-c2cccs2)nc2cc(=O)[nH]n12)Nc1cccc(C(F)(F)F)c1
  x | -0.8 | 2.8% | -22 | x | x
CCCC(c1nnnn1Cc1ccccc1)N1CCN(c2ccccc2OC)CC1 (stereo unspecified)
  -6 | 0.6 | 1.7% | 3 | -24 | -3.7
Cc1onc(-c2c(Cl)cccc2Cl)c1C(=O)Nc1ccc(C(N)=O)cc1
  -6 | -0.6 | -1.6% | -12 | -3 | 0.1
CN(C)c1ccc(C(=O)Nc2cccc(S(=O)(=O)N3CCCC3)c2)cc1
  -25 | 0.3 | -0.1% | -2 | -6 | -1.7
COc1cc2nc(C3CCC3)nc(N3CCN(c4ccccn4)CC3)c2cc1OC
  0 | 0.4 | -4.1% | 2 | 6 | 1.3
COc1ccc(OC)c(C(c2c(O)nc(SC)[nH]c2=O)c2c(O)nc(SC)[nH]c2=O)c1
  -7 | 0.5 | 0.2% | 0 | 2 | -2.1
Cc1cccc(C)c1NC(=O)COC(=O)c1ccccc1O
  2 | -0.3 | 5.0% | 4 | -10 | -2.3
CCOc1ccc(N(C(=O)c2ccc(OC)cc2)S(=O)(=O)c2ccc3c(c2)n(C)c(=O)n3C)cc1
  x | 2.8 | 3.0% | 10 | x | x
CCOc1ccc(S(=O)(=O)N(C(=O)c2ccncc2)c2ccc3oc(C)c(C(=O)OC)c3c2)cc1
  x | 0.3 | 4.3% | 25 | x | x
COc1ccc(C(=O)Nc2ccc3ncccc3c2)cc1
  4 | 0.5 | -1.4% | -3 | -7 | 4.2
O=C(NCc1ccccc1Cl)C1CCN(S(=O)(=O)N2CCCCC2)CC1
  3 | -0.3 | 4.8%[38.3 µM] | 7 | -5 | -2.9
CCOC(=O)CSC1=C(C#N)C(c2ccco2)C(C(=O)OCc2ccccc2)=C(C)N1 (stereo unspecified)
  7 | -0.2 | 0.3%[38.3 µM] | -10 | 7 | 1.8
O=[N+]([O-])c1ccc(NC2CCN(Cc3ccccc3)CC2)c([N+](=O)[O-])c1
  u | -0.5 | -1.7% | 78 | -4 | 12
COc1cc2c(cc1OC)C(=S)NC(C)(C)C2
  0 | 0.7 | x | 9 | -14 | -1.4
CCC(=O)N1c2nc(-c3ccco3)nn2C2(CCCCC2)[C@@H]2CCCC[C@@H]21
  x | 1.1 | 2.2% | 9 | x | x
CCCCNC(=O)c1ccc2nc(CC)c(N(CC)CCN(C)C)n2c1
  9 | -0.3 | -0.4% | x | -8 | -1.7
NC(CSC(c1ccccc1)(c1ccccc1)c1ccccc1)C(=O)O (stereo unspecified)
  -10 | 2.9 | 11% | 21 | 5 | 0.2
Cc1cccc(N2C(=O)N(Cc3ccc(C(C)(C)C)cc3)c3ccccc3S2(=O)=O)c1
  x | 0.9 | 0.0% | -4 | x | x
CCCCCn1nnnc1C1c2ccccc2C(=O)N1Cc1ccco1 (stereo unspecified)
  -8 | -0.6 | 1.6% | x | x | x
Cc1ccc(N(CC2CO2)S(=O)(=O)c2ccc(C)cc2)cc1 (stereo unspecified)
  7 | 0.1 | 1.7% | 23 | -6 | 2.6
Cc1cccc(Cn2c(CN3CCC(C(=O)NCCc4ccccc4)CC3)cc3ccccc32)c1
  x | 2.9 | 2.4% | -16 | x | x
CCOc1ccc(N(CC(=O)NC2CCCCC2)C(=O)CSc2nnc(COc3ccccc3)o2)cc1
  0 | 4.3 | 1.0% | 2 | -13 | -4.3
Cc1ccc(NC(=O)C(c2ccccc2)N2CCN(C(=O)c3ccco3)CC2)cc1 (stereo unspecified)
  -3 | -0.4 | 0.5% | 13 | -2 | -3.3
O=C1OCCC1Sc1nc2ccccc2[nH]1 (stereo unspecified)
  4 | 1.1 | 1.3%[38.3 µM] | -14 | -5 | -0.7
COc1ccc(Cn2cc(CN3CC(N(C)C)CS3(=O)=O)nn2)cc1 (stereo unspecified)
  3 | -0.3 | 0.1% | x | x | x
Cc1ccc(NC(=O)CC2CS(=O)(=O)CC2CC(=O)Nc2ccc(C)c(C)c2)cc1C (stereo unspecified)
  1 | -0.9 | 0.6% | 23 | -7 | -3.0
CC(=O)C1C(c2ccc(Cl)cc2)c2c(n[nH]c2C)CC1(C)O (stereo unspecified)
  14 | -0.4 | 1.8% | u | 0 | -6.2
CCc1cccc2c(C(=O)C(NCCOC)c3ccccc3)c[nH]c12 (stereo unspecified)
  3 | 1.5 | -3.4% | -10 | -4 | -2.0
CC(=O)N/C(=N\OCc1ccccc1Cl)c1nonc1NC(C)=O
  2 | -0.3 | -0.6% | 9 | -1 | 1.9
COC(=O)c1ccc(NC(=O)c2cccnc2)cc1
  -6 | x | 1.3% | x | -21 | -1.4
O=C(Nc1cccnc1)c1cccc(S(=O)(=O)Nc2cccc(Cl)c2)c1
  18 | -0.2 | u | -2 | 2 | -0.6
Cc1ccc(OC(=O)CCN2C(=O)c3ccccc3C2=O)cc1C
  16 | 1.1 | -1.1% | 2 | -6 | -4.1
O=C(c1cccs1)N1C[C@@H](n2cc(-c3ccc(F)cc3)nn2)[C@H](O)C[C@@H]1c1ccc(Cl)cc1
  5 | 1.5 | 4.0% | 9 | -1 | -6.8
CC1(C)Cc2c(C#N)c(N3CCOCC3)nc(Cc3ccccc3)c2CO1
  0 | 0.9 | 4.1% | -4 | -17 | -11
N#CCc1nn2c(-c3ccccc3)ccnc2c1C#N
  11 | x | 4.0% | x | -1 | 0.8
COC(=O)c1nc(Cl)c(Cl)c(N)c1Cl
  -2 | 0.3 | 4.1% | 10 | -5 | -2.3
Cc1c(O)nc(SC2CC(=O)N(c3cc(Cl)cc(Cl)c3)C2=O)[nH]c1=O (stereo unspecified)
  -15 | -0.9 | 1.0% | 13 | -3 | -3.4
Cc1ccc(N=C2S/C(=C\c3cn(CC(=O)O)c4ccccc34)C(=O)N2C)cc1
  -28 | 0.5 | 0.7% | 28 | 9 | -2.6
Cc1cccc(NC(=S)N(C)C)c1C
  -1 | 0.7 | -0.5% | 18 | -1 | -9.2
CCCn1nnnc1NC(=O)c1cc(Cl)ccc1Cl
  2 | -0.6 | 0.5% | 5 | -4 | -4.2
COC(=O)/C(=N/Nc1cccc(C)c1)N1CCCc2ccccc21
  -2 | 0.1 | 12% | 3 | -15 | -2.2
CNS(=O)(=O)c1cc(Cl)ccc1Sc1ccccc1C(=O)O
  10 | 0.0 | 0.7% | 4 | -2 | -1.0
N#Cc1cnn(-c2ccccc2)c1NC(=O)CN1CCN(c2ccccc2)CC1
  -8 | 0.5 | 0.1% | -4 | -11 | -2.6
CCOc1ccc(NC(=O)CN(C)C(=O)c2ccc3[nH]c4c(c3c2)CC(C)CC4)cc1OCC (stereo unspecified)
  u | 2.3 | 3.1% | -4 | 12 | -1.6

Going on with the list:
Values run as follows: Six1-Eya2 inh | TRPML1 ag | PINK1 expr mod | TRPML1 blocker | D2 potentiator | D2 ag
CCN(CC)CCNC(=O)C1c2ccccc2C(=O)N(C)C1c1cn(C)c2ccccc12 (stereo unspecified)
  6 | -0.5 | -0.4% | -21 | -13 | 0.7
O=C1NCCCC1C(=O)NCCNC(=O)C(F)(F)F (stereo unspecified)
  5 | 0.3 | x | -8 | -12 | -1.0
Cc1ccc(C(=O)Nc2ccc(S(=O)(=O)N(Cc3ccccc3)c3ccccc3)cc2)cc1
  x | 0.0 | 4.7% | -14 | x | x
CC(C)CN(C(=O)COC(=O)CCC(=O)c1ccc(Cl)cc1)c1c(N)n(Cc2ccccc2)c(=O)[nH]c1=O
  2 | 1.5 | 12% | 14 | -6 | -0.1
CCC(C)NS(=O)(=O)c1ccc(F)c(C(=O)Nc2c(F)cc(F)cc2Br)c1 (stereo unspecified)
  -3 | 0.0 | 5.6% | -3 | 1 | -3.1
Cc1ccc(-c2csc3ncnc(N4CCN(S(=O)(=O)c5cccs5)CC4)c23)cc1
  2 | 1.6 | 0.8% | 62 | -16 | -2.6
CN(C)CCN(C)C1CN(C2CCCC2)S(=O)(=O)C1 (stereo unspecified)
  -6 | -0.6 | -0.4% | x | -4 | -3.5
COc1ccc(S(=O)(=O)Nc2ccc(C)cc2)cc1OC
  4 | 0.0 | 2.3%[38.3 µM] | -20 | -6 | -2.5
CC(Oc1ccccc1)C(=O)NC1CCSc2ccccc21 (stereo unspecified)
  9 | 1.4 | 0.2% | -2 | -1 | -6.4
COc1cc(/C=C2\NC(=S)N(C)C2=O)ccc1OCc1cccc(F)c1
  6 | 0.1 | 7.1% | 14 | -9 | 3.5
COc1cccc(CNC(=O)c2cnc(N3CCCC3)nc2C)c1
  x | 2.6 | 1.1% | -18 | x | x
Cc1c(C(=O)N(C)C(C)c2ccccn2)oc2c(F)cccc12 (stereo unspecified)
  0 | 0.8 | 4.3% | 1 | -26 | 0.9
CC[N+](CC)(CC)CC(=O)Nc1c(C)cccc1C
  0 | -0.2 | 1.1% | 3 | -5 | -2.0
CC1=CC(C)C2COC(c3ccc[n+](C)c3)C1C2C (stereo unspecified)
  1 | -0.1 | 2.3% | -15 | -12 | -4.0
